# Mtb hypoxia inh – reduces hypoxia-regulated biosensor signal in M. tuberculosis; M. tuberculosis hypoxia-regulated fluorescent reporter, fluorescence; AID 1159583; 0.1% of 300,000 active; fluorescence inhibition, % (test concentration not listed);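 active means 35 to 45% if threefold the growth effect, above 45% if 1.5-fold the growth effect; inactive means the rest, general growth blockers included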;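 further: wells of about 50 µL received 100 nL stock; 0% = vehicle wells and 100% = reference inhibitor wells; whole bacteria with a GFP reporter of the hypoxia response; strong numbers were not always called active; many hits fall short of the cut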
# BJeLR viability – kills HRASV12-expressing BJeLR cells | inhibition, % (test concentration not listed) | 0.17% of 300,000 active | BJeLR (HRASV12) viability, CellTiter-Glo ATP luminescence, 48 h; reference of the scale not given here;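 active means replicate mean above 50%; inconclusive means above 50% but judged a plate artefact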;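 further: 50 nL library stock added to about 25 µL; numbers are from one replicate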
# Sa ugtP lethal – growth inhibition of S. aureus ugtP deletion strain; S. aureus RN4220 ugtP deletion, OD600 growth, 16 h; some inactives read as strong as hits; 0.54% of 330,000 active; AID 1259309; growth inhibition, % (concentration not given with the values);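 active means z-score under -3 and OD600 up to 0.15 on both plates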;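 further: plate controls were untreated wells for no effect and antibiotic for full effect; wells of about 80 µL received 100 nL stock; the first replicate is given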
# PrP UTR inh – inhibition of PrP 5' UTR reporter expression. 0.35% of 340,000 active. inhibition, % (no concentration beside the values). cell-based PrP 5' UTR mRNA reporter, plate reader;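 active means every replicate at 50% or more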;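 further: 0 = median of the neutral control wells; tested in H4 reporter cells; numbers are from one replicate; inactives centre near -14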
# Autofluor counter – counter-screen for toxin protease inhibitors: compound fluorescence | compound autofluorescence counterscreen, microsphere flow cytometry; hits give high values | fluorescence intensity (no concentration beside the values) | 3.1% of 360,000 active | AID 624483;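 active means at least 3 SD above the mean of all compounds, about 16000 in these data; inconclusive means too few beads counted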;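 further: 100 nL of 1 mM stock went into each well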
# Sa RN4220 lethal – S. aureus RN4220 growth inhibition. OD600, 16 h. inhibition, % (concentration not given with the values). 0.33% of 330,000 active. AID 1259311;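 active means z-score of -3 or lower and OD600 up to 0.18 on both plates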;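 further: plate controls were untreated cells for no effect and reference antibiotic for full effect; stock transfer was 100 nL into about 80 µL; one replicate is shown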
# Mtb hypoxia inh growth – second read-out of Mtb hypoxia inh, no call of its own (marks repeat the call); growth inhibition, %; measured here: M. tuberculosis growth (absorbance);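 0% = vehicle and 100% = reference antibiotic; read after six days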
# Numbers without * were called inactive; ? = inconclusive; . = no result given.
# Below each compound – Sa RN4220 lethal	Autofluor counter	BJeLR viability	Mtb hypoxia inh	Mtb hypoxia inh growth	PrP UTR inh	Sa ugtP lethal
Cc1ccccc1S(=O)(=O)Cc1ccc(C(=O)NC2CCCCC2C)o1 (configuration not stated)
    7.7	6314	12	20	9	-6	1
COCCNC(=S)Nc1cccc2cnccc12
    0.7	4228	3	12	8	-21	1
CNc1oc(-c2ccc(Cl)cc2)nc1C#N
    -2.3	10378	5	-7	1	-58	-4
COC(=O)C1CC(C(=O)O)C(C)C1(C)C (configuration not stated)
    7.2	.	.	14	-1	.	-1
Cc1ccccc1C(=O)NC(NC(=O)c1ccccc1C)c1cccc([N+](=O)[O-])c1
    -1.7	10487	7	-1	11	-8	-2
O=C1CCCN1CCCNCC(O)c1ccccc1 (configuration not stated)
    2.1	3708	1	8	8	-20	4
CN1CC=C2C(C#N)=C(N)C(C#N)(C#N)C(c3cccc(Cl)c3Cl)C2C1 (configuration not stated)
    5.8	2953	14	.	.	-9	-7
O=C(CNC(=O)C1COc2ccccc2O1)NN=Cc1ccc(Cl)cc1 (configuration not stated)
    4.8	.	.	-2	3	.	4
O=C(NC1CCCc2ccccc21)C1CCCO1 (configuration not stated)
    4.0	10875	13	9	10	-22	1
O=C(NCc1ccccc1)C1=C[C@H](c2ccc3c(c2)OCO3)C[C@H](OCCCCO)O1
    .	3595	4	.	.	-19	.
O=C(COC(=O)CCS(=O)(=O)c1ccc(Cl)cc1)NCCc1ccccc1
    4.8	10613	-1	6	2	-25	2
CCOC(=O)Cn1nc(-c2ccccc2)c(-c2ccccc2)nc1=O
    2.8	3733	8	3	-1	-42	6
Cc1ccc(OCc2nn3c(-c4ccco4)nnc3s2)cc1
    0.8	3430	7	.	.	-5	-5
COc1ccc(OC)c(NC(=O)c2ccccc2OC(C)=O)c1
    4.6	3935	-14	1	1	-16	0
O=C(NCCc1ccc(C(F)(F)F)cc1)C1CCC(=O)N(CCc2cccc(F)c2)C1 (configuration not stated)
    -2.4	6453	-5	10	0	-21	-6
CCN(CC)S(=O)(=O)c1cccc(NC(=O)COc2ncnc3sccc23)c1
    0.9	3339	5	7	2	-41	13
COc1cc(CC(=O)OCC(=O)N(C)C2CCCCC2)cc(OC)c1OC
    0.2	5427	.	4	6	-22	2
COc1ccc(NC2CCCN(C(=O)c3oc(C)cc3C)C2)cc1OC (configuration not stated)
    2.6	4145	-5	13	-35	-4	7
COCCCN1C(=O)C(=O)/C(=C(/O)c2ccc3c(c2)OCCO3)C1c1ccc(C(=O)OC)cc1 (configuration not stated)
    -14	3634	1	23	6	-15	-7
CC1=CC(c2ccccc2)n2ncnc2N1 (configuration not stated)
    0.9	3102	-5	-4	3	-26	-6
CC1CN(CCOc2ccc([N+](=O)[O-])cc2)CC(C)O1 (configuration not stated)
    6.6	2113	2	17	1	-16	4
C=CCN1C(=O)C(CC(=O)Nc2ccc(OC)cc2)SC1=Nc1ccc(S(N)(=O)=O)cc1 (configuration not stated)
    1.8	2214	16	-1	8	-24	4
COc1cc(CNC(C)(C)CO)cc(Br)c1OCc1ccc(Cl)cc1
    -8.3	2497	3	8	8	-17	-12
OCC1(CO)COC(c2ccccc2)=N1
    2.3	3224	5	8	3	-23	1
CCCNc1nc2c(c(=O)[nH]c(=O)n2C)n1CCCc1ccccc1
    4.8	7997	11	1	11	-11	2
CC(CS(=O)(=O)c1ccc2c(c1)NC(=O)CS2)C(=O)N1CCN(c2cccc(Cl)c2)CC1 (configuration not stated)
    9.9	5094	4	-4	5	6	1
Cc1nnc(SCC(=O)Nc2c(C)n(C)n(-c3ccccc3)c2=O)n1Cc1ccccc1
    -0.1	4910	5	0	3	2	3
OCC1(Cc2ccc(Cl)cc2)CCN(Cc2ccccc2F)CC1
    1.7	3354	-3	2	14	3	6
O=C(COc1ccc2ccccc2c1)NNC(=O)Nc1ccccc1F
    2.7	6017	-14	3	7	-10	0
Cn1c(=NC(=O)COc2ccccc2)sc2cc(F)cc(F)c21
    6.4	.	9	3	-12	.	2
Cc1cnc(C(=O)OCC(=O)N(Cc2ccccc2)C(C)C)cn1
    3.4	5278	.	1	-10	-10	8
O=C(CCC(=O)Nc1cccc([N+](=O)[O-])c1)NCc1ccccc1
    2.7	5400	-1	2	0	-22	12
COc1cccc2cc(C(=O)Nc3ccccc3C)/c(=N/O)oc12
    .	3921	8	.	.	-40	.
CCN1C(=O)C(CC(=O)Nc2ccc(F)cc2)N(CCCN2CCN(c3ccc(F)cc3)CC2)C1=S (configuration not stated)
    -5.9	4753	-6	-3	6	-16	-6
Cc1ccc2c(c1)N(CC(=O)NC1CCCCC1)C(=O)c1cccnc1O2
    -5.5	4793	-10	.	.	-5	-2
COc1ccc(CNC(=O)c2ccccc2C(=O)O)cc1
    1.5	2405	1	4	10	-14	0
Cc1ccc(C(CC(=O)O)NC(=O)CN2C(=O)c3ccccc3C2=O)cc1 (configuration not stated)
    6.5	5808	-11	-5	-2	-8	9
COc1ccc(C(=O)NC(C(=O)NCc2ccccn2)C(C)C)cc1 (configuration not stated)
    -1.6	3106	0	-1	5	-16	-4
CSc1ncc(Cl)c(C(=O)O)n1
    8.1	3313	-5	8	0	-16	7
CCCCCCSc1nc(O)c(C2OC(=O)c3c2ccc(OC)c3OC)c(=O)n1-c1ccccc1 (configuration not stated)
    9.3	2941	12	12	7	-15	-6
O=C(COc1ccc(Cl)cc1)N(Cc1ccccc1)c1ccccn1
    3.6	4891	2	.	.	-2	9
COc1ccc(-c2nc3ccncc3[nH]2)cc1OC
    4.9	4404	11	7	7	-6	5
O=[N+]([O-])c1cccc(C=NNc2nc(N3CCOCC3)nc(N3CCOCC3)n2)c1
    4.7	.	.	14	1	.	-9
CC1Cc2ccccc2N1C(=O)c1ccnc(C(C)(C)C)c1 (configuration not stated)
    5.8	10579	-9	1	2	-6	9
CCCN(CCC)CCCNC(=O)C1c2cc(OC)c(OC)cc2C(=O)N(C)C1c1cccnc1 (configuration not stated)
    0.1	3349	-49	-14	4	-11	-8
COc1ccc(NC(=O)/C(=C\c2ccco2)NC(=O)c2ccco2)cc1
    2.0	4534	-9	2	-5	-5	-1
O=C(O)C(Oc1ccc2cc(-c3ccc(Cl)cc3)c(=O)oc2c1)c1ccccc1 (configuration not stated)
    0.2	4346	15	-2	-6	-29	23
CC1CCCC(C)N1CCCNC(=O)c1ccc2c(c1)NC(=O)c1ccccc1S2 (configuration not stated)
    -2.5	6130	-1	-4	3	-11	-6
O=C(Nc1cccc(Cl)c1)c1csc(-c2ccccc2)n1
    3.7	11878	-7	6	8	-33	-16
C=CCN1C(=O)C2(OCCCO2)c2c(C)ccc(C)c21
    3.8	3541	7	3	6	-11	-6

# (listing goes on)
# Below each compound – Sa RN4220 lethal	Autofluor counter	BJeLR viability	Mtb hypoxia inh	Mtb hypoxia inh growth	PrP UTR inh	Sa ugtP lethal
CCC(C)NC(=O)C1CN(S(=O)(=O)c2ccccc2)CCN1S(=O)(=O)c1ccccc1 (configuration not stated)
    -6.9	2922	7	0	3	-22	-5
Cc1c(C(=O)N2CCC(C)CC2)sc2ncnc(N(C)c3ccccc3)c12
    5.5	7819	5	15	15	-4	-4
COc1cc(OC)cc(-c2c(-c3cccs3)c3cc(-c4ccc5c(c4)OCO5)ccc3n2C)c1
    -0.9	4276	.	20	17	-6	0
COc1c(C)cccc1C(=O)Nc1ccc(N2CCN(C(=O)c3ccccc3C)CC2)cc1
    -3.4	6293	1	12	8	-6	-3
CCOc1ccc(/C=N/NC(=O)CN2CCCCC2)cc1OCC
    .	3828	6	.	.	-9	.
CCc1cccc(NC(=O)CCNS(=O)(=O)c2ccc3c(c2)oc(=O)n3C)c1
    2.4	5273	4	-1	4	-20	3
COc1ccc(CCN2CC(C(=O)N(C)Cc3c(C)n[nH]c3C)CCC2=O)cc1 (configuration not stated)
    -1.6	6240	-4	8	8	6	8
COCCN=C1Sc2nc3c(C)cccc3cc2CN1Cc1ccco1
    -5.4	3868	-2	3	11	-4	26
CCOc1ccc(CN2CCCC(N3CCN(c4ccc(OC)cc4)CC3)C2)cc1 (configuration not stated)
    1.6	3416	3	5	2	-54	8
Cc1cc(-c2ccco2)n(CC(=O)NCc2ccco2)n1
    -0.1	5695	7	1	8	-10	4
CCCCSc1ncnc2c1ncn2C1CCCCO1 (configuration not stated)
    0.6	2867	.	.	.	-110	2
c1ccc2c(c1)[nH]c1ccncc12
    .	3491	2	.	.	-14	.
Cc1ccc(N2CC(C(=O)Nc3ccccn3)CC2=O)cc1 (configuration not stated)
    3.2	4611	6	-2	11	-14	2
COc1ccc(NC(=O)c2cc(C3CC3)nc3c2cnn3C(C)C)cc1OC
    1.7	3143	.	7	8	2	5
C(=NNc1ncnc2sc3c(c12)CCC3)c1ccncc1
    4.3	.	.	-67	5	.	31
O=C(O)c1cc(S(=O)(=O)Nc2ccc3cn[nH]c3c2)ccc1Cl
    0.5	2973	.	-9	8	-12	-4
Cc1ccc(S(=O)(=O)N2CCC[C@H]2C(=O)OCCN2C(=O)c3ccccc3C2=O)cc1
    2.9	?	.	3	0	-38	11
COc1ccc(C(C)=O)cc1COC(=O)Cn1cnc2ccccc2c1=O
    7.7	10718	7	-3	0	-14	1
CCn1nc(NC(=O)c2cccs2)c2cc3ccccc3nc21
    9.5	2041	-12	4	12	14	-23
Clc1cnc(NN=Cc2ccncc2)c(Cl)c1
    1.2	.	.	9	6	.	1

# Reprinted from above for reference:
# Below each compound – Sa RN4220 lethal	Autofluor counter	BJeLR viability	Mtb hypoxia inh	Mtb hypoxia inh growth	PrP UTR inh	Sa ugtP lethal
COc1ccc(C(C)=O)cc1COC(=O)Cn1cnc2ccccc2c1=O
    7.7	10718	7	-3	0	-14	1
CCn1nc(NC(=O)c2cccs2)c2cc3ccccc3nc21
    9.5	2041	-12	4	12	14	-23
Clc1cnc(NN=Cc2ccncc2)c(Cl)c1
    1.2	.	.	9	6	.	1

# Returning to the listing, starting 3 compounds before the break.
# Below each compound – Sa RN4220 lethal	Autofluor counter	BJeLR viability	Mtb hypoxia inh	Mtb hypoxia inh growth	PrP UTR inh	Sa ugtP lethal
COc1ccc(C(C)=O)cc1COC(=O)Cn1cnc2ccccc2c1=O
    7.7	10718	7	-3	0	-14	1
CCn1nc(NC(=O)c2cccs2)c2cc3ccccc3nc21
    9.5	2041	-12	4	12	14	-23
Clc1cnc(NN=Cc2ccncc2)c(Cl)c1
    1.2	.	.	9	6	.	1
O=C(c1sccc1-c1ccccc1)N1CCN(S(=O)(=O)c2ccccc2F)CC1
    10	4067	-4	-6	-4	-25	2
Cn1c(CNC(=O)c2ccccc2F)nnc1SCCOc1ccccc1
    8.3	3784	-2	9	-5	-10	3
COc1ccc(-n2nc(N)c3c(=O)oc(N(C)C)nc32)cc1
    5.3	16554*	7	11	7	-14	3
Cc1ccc(S(=O)(=O)CCc2nc3ccccc3s2)cc1
    -1.3	4777	.	.	.	-13	-4
C[C@H](O)c1[nH]c2cc(F)ccc2c1[C@H](C)O
    .	2990	-1	.	.	-12	.
COc1ccc(CN2C(=O)CN=C2Nc2ccc(C)cc2C)cc1
    -4.2	3591	5	-18	0	-13	3
CCC1=C2CCC3C(=O)N(c4ccccc4)C(=O)C3C2[C@@]2(C)C(=NCC3CC3)OC(=O)N2C1=O (some centres not stated)
    4.9	.	.	3	-1	.	0
CCOC(=O)Nc1nnc(-c2cccc(OC)c2)s1
    3.7	4527	-3	-4	5	-30	-7
Cc1ccccc1-c1n[nH]c(=S)n1/N=C/c1c(C)nn(-c2ccccc2)c1C
    .	2456	21	.	.	-10	.
S=c1[nH]nc(-c2ccc3ncccc3c2)n1-c1ccc2c(c1)OCCO2
    1.0	4464	0	2	9	-24	6
CC(Sc1nnc(C(C)N(C)C)n1-c1ccc(Cl)cc1)C(=O)Nc1ccc2c(c1)OCO2 (configuration not stated)
    0.3	3882	-1	.	.	-22	-6

# Outcome played no part in choosing rows; overall some 3.9% were active at least once.
